# StopGo FLuc: lowers the firefly signal of an FMDV 2A StopGo reporter | HEK cells with a luciferase reporter of 2A StopGo recoding | Potency, µM (titrated, usually from 57.5 µM), for the others: at the highest dose signal change, negative = less light | actives 0.23% (n = 120,000); active = well fitted falling curve with a large enough effect; inconclusive = small, poorly fitted or top-dose-only effect; inactive = no such curve, though single readings can be large or run the other way; further: nearly all actives have a fitted effect of over 60% in size; overnight with compound
# StopGo RLuc: lowers the Renilla signal of an FMDV 2A StopGo reporter | Potency, µM (highest dose often 57.5 µM), inactives show top-dose signal change, negative = less light | HEK cells with a luciferase reporter of 2A StopGo recoding | AID 1745857 | actives 0.32% (n = 120,000); active means well fitted falling curve with a large enough effect; inconclusive means small, poorly fitted or top-dose-only effect; inactive means no such curve, though single readings can be large or run the other way; further: nearly all actives have a fitted effect of over 55% in size; overnight with compound
# Numbers without * were called inactive; ? = inconclusive; & = joins results of further samples; [ ] = dose if it differs, or a comment. On the % scale 0 is the no-effect control and ±100 the full control effect; potency means the concentration at half of the fitted maximal effect. The list is partial; the hit share may differ from the screen's.
# Order of values – StopGo FLuc | StopGo RLuc
CC(C)Oc1ccc(C(=O)N2CCC(c3nc4ccccc4o3)CC2)cc1
→ ? | 24.6%&13.4%
O=C(Nc1ccc(-c2nc3ccccc3o2)c(O)c1)c1cc(Cl)ccc1Cl
→ 39.6%[activator] | -4.0%
CCCNC(=O)NNC(=O)c1cc(-c2ccc(Cl)cc2)nc2ccccc12
→ ? | 84.0%[activator][1.06 µM]
CS(=O)(=O)c1ccc(Cl)c(NC(=O)c2cnccn2)c1
→ -7.3% | 4.2%
CCOC(=O)c1c(C)c(CCC(=O)NCCN2CCN(C)CC2)c(C)n1C
→ -7.0% | -7.9%
Cc1ccc(-c2nn(CC(=O)NC3CCCC3)c3c2cnc2ccc(F)cc23)cc1C
→ 57.7%[activator] | -12.3%
Cc1ccc(C)c(N2CCN(S(=O)(=O)c3c(C(=O)N4CCC(C)CC4)c(C)n(C)c3C)CC2)c1
→ -19.7% | 1.9%
COc1ccc2c(c1)CCc1c(C(=O)Nc3cc(C)ccc3O)noc1-2
→ 123.6%[activator] | 14.4%
COc1ccc2oc(=O)cc(CN3CCN(c4ccccc4OC)CC3)c2c1
→ -7.8% | -9.1%
CN1CCN(C(CNC(=O)c2cc(-c3ccccc3)on2)c2cccs2)CC1 (centres undefined)
→ 5.2% | 19.4%

# The list continues.
# Order of values – StopGo FLuc | StopGo RLuc
O=C(COc1ccccc1)Nc1nnc(S(=O)(=O)N2CCCC2)s1
→ -12.1% | -0.4%
COc1cccc(C(=O)Nc2nc3nc(C)c(C)c(=O)n3[nH]2)c1
→ 22.8% | 4.0%
COc1cccc(NC(=O)N2CCN3CCCCC3C2)c1 (centres undefined)
→ 12.5% | 3.0%
COC(=O)c1ccc(C)c(NC(=O)N2CCc3[nH]cnc3C2c2cccc(F)c2F)c1 (centres undefined)
→ 3.0% | 14.2%
O=C(CCCn1ccc2cc(S(=O)(=O)N3CCCC3)ccc21)NCc1ccc(Cl)cc1
→ ? | -1.4%
CC(NC(=O)NOCc1ccccc1)c1ccccn1 (centres undefined)
→ 83.9%[activator] | 17.4%
COc1cccc(C(=O)N2CCCCC2CCN2CCCC2)c1 (centres undefined)
→ -7.8% | -5.9%
CCc1ccc(OCc2nc(-c3ccc(-n4cccc4)cc3)no2)cc1
→ 11.7% | 6.8%
CNC(=O)c1ccc(OCc2coc(-c3cccc(F)c3)n2)cc1
→ -21.5% | -39.1%
CC(C)NNC(=O)c1ccccc1
→ 0.0% | 5.1%

# In another format: entries from further up
SMILES: COC(=O)c1ccc(C)c(NC(=O)N2CCc3[nH]cnc3C2c2cccc(F)c2F)c1 (centres undefined)
  StopGo FLuc = 3.0%
  StopGo RLuc = 14.2%

SMILES: O=C(CCCn1ccc2cc(S(=O)(=O)N3CCCC3)ccc21)NCc1ccc(Cl)cc1
  StopGo FLuc = ?
  StopGo RLuc = -1.4%

# More records follow:
# Order of values – StopGo FLuc | StopGo RLuc
CN1CCN(C(C(=O)O)c2cn(CC(=O)O)c3cc(Cl)ccc23)CC1 (centres undefined)
→ 0.9% | -5.0%
CCCCCn1c(-n2nc(C)c(C)c2C)nc2c1c(=O)n(CC(=O)OC)c(=O)n2C
→ -8.8% | 5.3%
COCc1ccc(CNC(=O)C=C(C)C)cc1
→ 8.9% | -2.6%
COc1cccc(NC(=O)Cc2cnc(-n3cccc3)s2)c1
→ 15.8% | 57.1%[activator]
CCn1c(=O)c2cc(C(=O)N(CC(C)C)CC(C)C)sc2c2ccccc21
→ -0.9% | -0.6%
CCOc1ccccc1NC(=O)C1CCN(S(=O)(=O)c2cc(Br)cc3c2N(C(C)=O)CC3)CC1
→ -2.7% | -9.9%
COc1ccc(CCNC(=O)c2ccc(CSCc3ccc(C)cc3)o2)cc1OC
→ ? | ?
Cc1cccc(N2CCN(C(=O)CCNS(=O)(=O)c3ccc4c(c3)CCN4C(=O)C3CC3)CC2)c1C
→ ? | ?
Cc1cccc(-c2nnn3c2nc(NCCc2ccc(S(N)(=O)=O)cc2)c2cc(Cl)ccc23)c1
→ 6.1% | -11.3%
Cc1ccc(CN(Cc2ccco2)C(=O)c2ccccc2Cl)o1
→ -16.8% | 14.1%

# (further entries)
mol | StopGo FLuc | StopGo RLuc
COc1ccccc1CNC(=O)C1CCCN(c2nnc(-n3c(C)ccc3C)s2)C1 (centres undefined) | 21.4% | 5.5%
CC(=O)c1cccc(NS(=O)(=O)c2ccc(-c3ccc(C)cc3)cc2)c1 | ? | 6.7%
COc1ccc(C(=O)c2sc(Nc3cc(Cl)ccc3C)nc2N)cc1OC | -2.1% | 1.8%
CCN(CC)CCSC(=O)C(c1ccccc1)c1ccccc1 | -9.0%[11.5 µM] | -2.2%
Cc1cc(C)c(CNCc2ccco2)c(C)c1 | 3.2% | -4.5%
CNS(=O)(=O)Cc1ccc(CNC(=O)NC(C)CO)cc1 (centres undefined) | -11.5% | -1.5%
Cc1ccc(C(=O)c2c(N)c(C(=O)Nc3ccccc3Cl)c3ccccn23)cc1 | -9.4% | -4.7%
CCSc1nc(-c2ccc(C)cc2)nc2c1COC(C)(C)C2 | -11.5% | -19.7%
CCCCCCN1CCS(=O)(=O)N(Cc2ccc(C)cc2)C(C(=O)OC)C1 (centres undefined) | 24.4% | 0.0%
Cc1c(C(=O)NCc2ccccc2Cl)sc2nc[nH]c(=O)c12 | -22.7% | 4.5%
Cc1cc(C)cc(-n2ncc3c(NCC4CCCO4)ncnc32)c1 (centres undefined) | 32.7%[activator] | 12.0%
Cc1ccc(CNC(=O)c2c3c(nc4ccccc24)C(=O)N(C2CCCCC2)C3)cc1 | -32.4% | 0.7%
Cn1c(C(=O)Nc2ccccc2)c(Cl)c2ccccc21 | 167.2%[activator] | -8.1%
CCOc1ccc2cc(/C(=N/O)C3CCCCC3)ccc2c1 | 48.5%[activator] | 5.1%
O=C(CNC(=O)c1ccc(Cl)cc1)OCc1cc(=O)n2nc(C3CC3)sc2n1 | -15.9% | -11.0%

# Further entries follow.
mol | StopGo FLuc | StopGo RLuc
c1cc2ccc3cccc4ccc(c1)c2c34 | -17.4%[27 µM] | 3.5%[129 µM]
CN=C1NC(=NC)c2ccccc21 | 2.2% | -6.3%
COc1ccc(Cn2c(CO)cnc2SCC(=O)Nc2ccc(F)cc2F)cc1 | 15.6% | 7.5%
Cc1ccc(-n2c(CCC(=O)O)ccc2-c2cccs2)cc1Cl | 22.3% | -3.1%
CN(C)c1oc(-c2ccco2)nc1S(=O)(=O)c1ccc2c(c1)OCCO2 | 1.1% | -0.1%
COc1ccccc1CNC(=O)C(=O)NCC(c1cccs1)S(=O)(=O)c1cccs1 (centres undefined) | -10.0% | 0.1%
CC1=CC(C)(C)Nc2ccc(OC(=O)C(Sc3ccccc3)c3ccccc3)cc21 (centres undefined) | ? | 0.0%
O=C(Nc1ccccc1)c1ccc(CSc2ccc(C(F)(F)F)cn2)cc1 | 0.0% | 5.4%
Cc1cccc(-c2noc(CN(C)C(=O)COc3ccc4ccccc4c3Br)n2)c1 | -5.3% | -14.6%
Cn1c(=O)c2c(ncn2CC(O)c2ccccc2)n(C)c1=O (centres undefined) | 15.2% | -2.8%
Cc1ccc(CCC(=O)Nc2cccc3cccnc23)cc1 | 3.7% | 3.6%
CCCOc1ccc(CNC(=O)c2[nH]c3cc(OC)ccc3c2Sc2ccccc2)cc1 | -9.3% | 0.7%
COc1ccccc1-c1cc2ccccc2oc1=O | 0.0% | 28.3%
CCOC(=O)c1c(C)[nH]c(C)c1S(=O)(=O)N(C)CC(=O)Nc1cccc(Cl)c1C | -18.9% | 53.0%[activator]
O=C(CNc1cc(Cl)ccc1N1CCOCC1)Nc1ccc(F)cc1 | -12.5% | 122.1%[activator]

# The listing continues:
mol | StopGo FLuc | StopGo RLuc
COc1ccccc1N1CCN(C(=O)Cn2c(=O)nc(-c3ccccc3)c3cc(Cl)ccc32)CC1 | 7.0% | -8.6%
CCN(CC)S(=O)(=O)c1ccc2c(c1)CCN2 | 17.3% | 22.8%
N#Cc1cccc(COC(=O)c2c[nH]c3ccccc23)c1 | 190.1%[activator] | 19.0%
COCCNc1nc(C(C)C)c2c(c1C#N)CCCC2 | 0.3% | -5.3%
COc1ccc(C(=O)/C=C/c2cn(CC(O)CN3CCc4ccccc43)c3ccccc23)cc1 (centres undefined) | 52.8%[activator] | -11.7%
Cc1cccc(CN2CCC(CNC(=O)c3c(C)oc4ncnc(N5CCCCC5)c34)CC2)c1 | 3.0% | -9.3%
N#C/C(=C/c1ccc(O)cc1)c1ccc(C(F)(F)F)cn1 | 107.7%[activator] | 1.3%
N#C/C(=C\c1ccc(-c2ccc(F)cc2F)o1)c1nc2ccccc2[nH]1 | 0.4% | -8.9%
COc1ccc(OC)c2sc(N3CCN(C(=O)C4CCCCC4)CC3)nc12 | -4.9% | -12.0%
COC(=O)c1ccc(NC(=S)NCCO)cc1 | 0.0% | 3.9%
COc1ccc2c(c1)cc1c(=O)n(CC(=O)NCCCc3ccccc3)nc(C)n12 | -16.9% | -10.5%
COc1ccc(-c2onc(C)c2C)cc1S(=O)(=O)N(C)Cc1ccco1 | 31.6µM* | ?
NNc1ccccc1 | -8.2%[11.5 µM] | 0.3%
CCOc1ccc(CNC(=O)C(C)n2ncn3cccc3c2=O)cc1 (centres undefined) | -10.7% | 6.2%
CCCC12CN3CC(C)(CN(C1)C3c1cc(Br)ccc1OCC)C2=O (centres undefined) | -2.3% | -14.8%

# 20 structures already listed, sorted by molecular weight, largest number first:
mol | StopGo FLuc | StopGo RLuc
COc1ccccc1N1CCN(C(=O)Cn2c(=O)nc(-c3ccccc3)c3cc(Cl)ccc32)CC1 | 7.0% | -8.6%
Cc1cccc(-c2noc(CN(C)C(=O)COc3ccc4ccccc4c3Br)n2)c1 | -5.3% | -14.6%
Cc1cccc(CN2CCC(CNC(=O)c3c(C)oc4ncnc(N5CCCCC5)c34)CC2)c1 | 3.0% | -9.3%
COc1ccc(C(=O)/C=C/c2cn(CC(O)CN3CCc4ccccc43)c3ccccc23)cc1 (centres undefined) | 52.8%[activator] | -11.7%
CCCOc1ccc(CNC(=O)c2[nH]c3cc(OC)ccc3c2Sc2ccccc2)cc1 | -9.3% | 0.7%
CCOC(=O)c1c(C)[nH]c(C)c1S(=O)(=O)N(C)CC(=O)Nc1cccc(Cl)c1C | -18.9% | 53.0%[activator]
CCCC12CN3CC(C)(CN(C1)C3c1cc(Br)ccc1OCC)C2=O (centres undefined) | -2.3% | -14.8%
COc1ccc(OC)c2sc(N3CCN(C(=O)C4CCCCC4)CC3)nc12 | -4.9% | -12.0%
O=C(Nc1ccccc1)c1ccc(CSc2ccc(C(F)(F)F)cn2)cc1 | 0.0% | 5.4%
COc1ccc(-c2onc(C)c2C)cc1S(=O)(=O)N(C)Cc1ccco1 | 31.6µM* | ?
O=C(CNc1cc(Cl)ccc1N1CCOCC1)Nc1ccc(F)cc1 | -12.5% | 122.1%[activator]
N#C/C(=C\c1ccc(-c2ccc(F)cc2F)o1)c1nc2ccccc2[nH]1 | 0.4% | -8.9%
CCOc1ccc(CNC(=O)C(C)n2ncn3cccc3c2=O)cc1 (centres undefined) | -10.7% | 6.2%
Cn1c(=O)c2c(ncn2CC(O)c2ccccc2)n(C)c1=O (centres undefined) | 15.2% | -2.8%
Cc1ccc(CCC(=O)Nc2cccc3cccnc23)cc1 | 3.7% | 3.6%
N#Cc1cccc(COC(=O)c2c[nH]c3ccccc23)c1 | 190.1%[activator] | 19.0%
COCCNc1nc(C(C)C)c2c(c1C#N)CCCC2 | 0.3% | -5.3%
CCN(CC)S(=O)(=O)c1ccc2c(c1)CCN2 | 17.3% | 22.8%
COc1ccccc1-c1cc2ccccc2oc1=O | 0.0% | 28.3%
NNc1ccccc1 | -8.2%[11.5 µM] | 0.3%

# Further results.
mol | StopGo FLuc | StopGo RLuc
COCCc1ccc(OS(=O)(=O)c2c(C)c(Cl)cc(C)c2Cl)cc1 | 9.9% | 16.9%
CNC(=O)c1ccc(NC(=O)COc2ccc(-c3nn(C)c(=O)c4ccccc34)cc2)cc1 | 34.8%[activator] | 41.0%[activator]
COc1ccc(-c2onc(C)c2C)cc1S(=O)(=O)NCC1CCN(Cc2cccc(F)c2)CC1 | -12.6% | 126.0%[activator]
CC(=O)NC(C(=O)O)c1ccccc1 (centres undefined) | 12.9% | 7.0%
COc1cccc(-n2c(SCC(=O)Nc3nnc(C)s3)nc3c([nH]c4ccccc43)c2=O)c1 | 27.0% | 38.4%[activator]
COC(=O)c1cc(-c2ccc(S(=O)(=O)N3CCN(c4cc(Cl)ccc4C)CC3)s2)on1 | 11.3% | 5.9%
Cc1ccccc1OCC(=O)NCC(c1ccccc1Cl)N1CCCCC1 (centres undefined) | ? | ?
N#Cc1cccnc1NCCNc1ccc2ccccc2n1 | 52.2%[activator] | 19.3%
O=C(COc1ncnc2ccccc12)NCc1ccccc1 | 17.3% | -5.1%
CCCCCn1nc(C(=O)N(CC)c2c(N)n(CCCC)c(=O)[nH]c2=O)c2ccccc2c1=O | 5.9% | 8.6%
O=C(Nc1cc2c(cc1C(=O)c1ccc(Br)cc1)OCCO2)c1cccc(F)c1 | -4.2% | -12.3%
CCC(=O)c1cc2c(cc1NC(=O)c1ccccc1F)OCCO2 | 0.4% | -8.1%
Cc1ccc(Cl)cc1NCc1nnc2n1CCCCC2 | -12.9% | 21.9%
COc1ccc2c(C)c(CCC(=O)Nc3nc4ccccc4[nH]3)c(=O)oc2c1C | 3.2% | -4.7%
